# Assay outcomes (PubChem BioAssay)
# 2A firefly = FMDV 2A StopGo reporter, firefly signal | HEK cells with a luciferase reporter of 2A StopGo recoding | Potency, µM (series often up to 57.5 µM), for inactives: at the top dose signal change, negative = less light | 120,000 compounds, 0.23% hits; active = well fitted falling curve with a large enough effect; inconclusive = small, poorly fitted or top-dose-only effect; inactive = no such curve, though single readings can be large or run the other way; further: nearly all actives have a fitted effect of over 60% in size; overnight with compound
# 2A Renilla = FMDV 2A StopGo reporter, Renilla signal | Potency, µM (top dose mostly 57.5 µM), for inactives: top-dose signal change, negative = less light | 120,000 compounds, 0.32% hits | HEK cells with a luciferase reporter of 2A StopGo recoding | AID 1745857; active means well fitted falling curve with a large enough effect; inconclusive means small, poorly fitted or top-dose-only effect; inactive means no such curve, though single readings can be large or run the other way; further: nearly all actives have a fitted effect of over 55% in size; overnight with compound
# Numbers without * were called inactive; ? = inconclusive; [ ] = another dose, or the depositor's remark. On the % scale 0 is the no-effect control and ±100 the full control effect; potency means the concentration at half of the fitted maximal effect.
SMILES,2A firefly,2A Renilla
COc1ccc(-c2nc(SCC(=O)c3ccc(Cl)cc3)n[nH]2)cc1,14%,9%
Cc1ccc(C)c(OCCCOc2ccc(Cl)cc2/C=N/NC(N)=O)c1,11%,7%
COc1cc(C#N)ccc1OCc1ccc(F)cc1Cl,32%[activator],13%
CCOc1cccc(-c2nc3ccccc3c(=O)o2)c1,357%[activator],-5%
Cc1ccccc1C(=O)Nc1ccc(OCc2cc(=O)n3ccccc3n2)cc1,-7%,1%
Cc1ccc(CN2C(=O)c3ccccc3Sc3ccc(C(=O)NC4CCCC4)cc32)cc1,-14%,-4%
CCOc1ccc(Cn2c(=O)c3sccc3n(CC(=O)NCc3ccc4c(c3)OCO4)c2=O)cc1,-12%,-6%
CCCn1nc(NC(=O)c2cccc(Cl)c2)c2cc3cccc(C)c3nc21,-6%,-5%
O=C(Nc1cccc(C(F)(F)F)c1)c1cc(-c2ccc(Cl)s2)nc2ccccc12,-8%,-14%
COc1ccc(CNC(=O)CSc2cc(C)nc3c(-c4ccccc4OC)c(C)nn23)cc1,0%,31%[activator]
CCOc1ccc(S(=O)(=O)N(CC(=O)Nc2cccnc2)c2ccccc2)cc1,-6%,0%
Fc1cccc(NC(=S)NCc2cccs2)c1,-8%,79%[activator]
CSc1ncc(C(=O)N2CCN(c3cccc(Cl)c3)CC2)c(C)n1,22%,1%
COc1ccc(/C=C(/C#N)C(=O)Nc2cccc3ncccc23)cc1,15%,2%
CCOC(=O)c1cccc(NC(=O)CCc2nc3cccnc3n2-c2ccccc2)c1,-3%,-5%
CCCn1c(NC(=O)CCOc2ccccc2)nc2ccccc21,-12%,63%[activator]
CCN(CC)C(=O)COc1cc(O)c2c(=O)cc(-c3ccccc3)oc2c1,17%,8%
CC(C)NC(=O)C(=O)NCCc1c[nH]c2ccccc12,15%,1%
Cn1c(=O)c(-c2noc(C(=O)N3CCC(c4ccccc4)C3)n2)nn(-c2ccc(F)cc2)c1=O (stereo not given),-4%,-10%
CCCOc1ccccc1-c1nc(SCC(=O)c2ccccc2)n[nH]1,42%[activator],11%
COc1ccccc1NC(=O)c1c(NC(=O)c2ccccc2F)sc2c1CCC2,6%,-3%
CCOc1ccc(-c2nnc(SCC(=O)NCCc3ccccc3)nc2-c2ccc(OCC)c(OC)c2)cc1OC,14%,32%[activator]
CC(Cn1cccn1)NC(=O)c1ccc2c(c1)OCO2 (stereo not given),102%[activator],5%
Cn1nc(C(=O)N2CCN(c3ccc(Cl)cc3)CC2)c2c1-c1ccccc1SC2,-14%,-4%
Fc1ccc(NC(=S)NCCc2ccccc2F)cc1,0%,16%
COc1ccc(CNc2nc(-c3ccc(OC)cc3)cc(C(F)(F)F)n2)cc1,20%,9%
COC(=O)C1=C(C)NC(=O)CC1c1ccc(Cl)cc1Cl (stereo not given),-2%,-2%
COc1ccc(C(=O)c2cn(CC(=O)Nc3ccc4c(c3)OCCO4)c3ccc(OC)cc3c2=O)cc1,-10%,-7%
N#CC1(c2ccc(NC(=O)Cc3ccc(Br)cc3)cc2)CCCC1,24%,4%
Fc1cccc(NCc2cccn2-c2nnc(N3CCOCC3)s2)c1,25%,-12%
Cc1ccc(C(C)OC(=O)C2(C)CCC(C(=O)O)C2(C)C)cc1 (stereo not given),0%,-3%
Cc1ccc(C)c(-n2c(Cc3cc(=O)[nH]c(=O)[nH]3)nnc2SCC(=O)c2ccc(Cl)cc2)c1,-16%,-19%
CC(=O)c1ccc(NC(=O)CSC2=NS(=O)(=O)c3ccc(C)cc3N2)cc1,2%,14%
COc1ccccc1N1CCN(C(=O)c2cnn(-c3ccc(F)cc3F)c2C2CCNCC2)CC1,-6%,-16%
CCOC(=O)c1c(NC(=O)c2cc(=O)c3c(C)cc(C)cc3o2)sc(C(C)=O)c1C,-13%,-4%
O=C(Nc1ccccc1Br)c1cc(C2CC2)nn1-c1ccccc1,19%,-5%
Brc1ccc(-c2nnn(Cc3ncc(-c4ccccc4)o3)n2)cc1,-8%,-12%
Cc1noc(C(C)Sc2nc(C3CC3)nc3ccccc23)n1 (stereo not given),-23%,?
COc1ccc(-c2c(NC(=O)c3cccs3)oc3ccccc3c2=O)cc1OC,-6%,1%
CC[N+](C)(CC)CC(C[N+](C)(CC)CC)OCc1ccccc1,0%,8%
COc1ccc(CNC(=O)CN2CCC(c3nc4ccccc4s3)CC2)cc1,?,?
CCc1ccc(NC(=O)CSC2=Nc3ccccc3C3=NC(CCC(=O)NCc4ccccc4OC)C(=O)N23)cc1 (stereo not given),-4%,-12%
CC(C)c1ccc(C2Sc3ccccc3NC3=C2C(=O)c2ccccc23)cc1 (stereo not given),?,37%[activator]
COc1cc(C2CC(=O)Nc3nc(-c4ccccc4)[nH]c(=O)c32)cc(OC)c1OC (stereo not given),-15%,-12%
Cc1ccc(NC(C)C(=O)Nc2sccc2C#N)cc1 (stereo not given),257%[activator],27%
CCN1C(=O)c2ccccc2Sc2ccc(NC(C)=O)cc21,-9%,15%
Cc1ccc(-c2nc(C#N)c(NCc3ccco3)o2)cc1,170%[activator],31%[activator]
CCCCCC1CCC(C2CCC(C(=O)O)CC2)CC1 (stereo not given),69%[activator],6%
CCc1ccc(-n2c(=O)c3c4c(sc3n(CC(=O)N3CCCCC3CC)c2=O)CCC4)cc1 (stereo not given),-7%,6%
CC(C)c1nc2cc(NC3CCCCNC3=O)ccc2o1 (stereo not given),165%[activator],3%
CCOc1ccc2c(=O)c(Oc3cc(C)cc(C)c3)coc2c1,2%,-5%
O=C(CCc1cccnc1)NCCc1ccccn1,25%,1%
Cc1ccc(NC(=O)N2CCN3CCCCC3C2)cc1F (stereo not given),37%[activator],-7%
Cc1oc(-c2ccccc2)nc1C(=O)NCc1ccc(F)cc1,-5%,-10%
CCc1cc(=O)oc2cc(OC(C)C(=O)NCc3ccncc3)c(Cl)cc12 (stereo not given),1%,-6%
O=C(C1CCN(c2nc(-c3cccs3)nc3ccccc23)CC1)N1CCCCCC1,0%,39%
CCOC(=O)C(=O)CC(=O)c1cc(Cl)ccc1Cl,3%,6%
CCCCCCCOc1ccc(/C=C(\C#N)C(=O)c2ccccc2)cc1,0%,24%
COc1ccc(-c2cc(C(=O)O)c3cc(C)ccc3n2)cc1,115%[activator],-22%
CCC(C)(C(=O)NC1CCCCC1)N(Cc1ccco1)C(=O)CNC(=O)c1ccccc1 (stereo not given),3%,45%[activator]

# For reference, some entries already given.
SMILES,2A firefly,2A Renilla
COc1ccc(CNC(=O)CN2CCC(c3nc4ccccc4s3)CC2)cc1,?,?
CCc1ccc(NC(=O)CSC2=Nc3ccccc3C3=NC(CCC(=O)NCc4ccccc4OC)C(=O)N23)cc1 (stereo not given),-4%,-12%
CC(C)c1ccc(C2Sc3ccccc3NC3=C2C(=O)c2ccccc23)cc1 (stereo not given),?,37%[activator]
COc1cc(C2CC(=O)Nc3nc(-c4ccccc4)[nH]c(=O)c32)cc(OC)c1OC (stereo not given),-15%,-12%
Cc1ccc(NC(C)C(=O)Nc2sccc2C#N)cc1 (stereo not given),257%[activator],27%
CCN1C(=O)c2ccccc2Sc2ccc(NC(C)=O)cc21,-9%,15%
Cc1ccc(-c2nc(C#N)c(NCc3ccco3)o2)cc1,170%[activator],31%[activator]
CCCCCC1CCC(C2CCC(C(=O)O)CC2)CC1 (stereo not given),69%[activator],6%
CCc1ccc(-n2c(=O)c3c4c(sc3n(CC(=O)N3CCCCC3CC)c2=O)CCC4)cc1 (stereo not given),-7%,6%
CC(C)c1nc2cc(NC3CCCCNC3=O)ccc2o1 (stereo not given),165%[activator],3%
CCOc1ccc2c(=O)c(Oc3cc(C)cc(C)c3)coc2c1,2%,-5%
O=C(CCc1cccnc1)NCCc1ccccn1,25%,1%
Cc1ccc(NC(=O)N2CCN3CCCCC3C2)cc1F (stereo not given),37%[activator],-7%
Cc1oc(-c2ccccc2)nc1C(=O)NCc1ccc(F)cc1,-5%,-10%
CCc1cc(=O)oc2cc(OC(C)C(=O)NCc3ccncc3)c(Cl)cc12 (stereo not given),1%,-6%
O=C(C1CCN(c2nc(-c3cccs3)nc3ccccc23)CC1)N1CCCCCC1,0%,39%

# (further entries)
SMILES,2A firefly,2A Renilla
O=C(O)CC(c1ccc(F)cc1)c1ccc(Cl)cc1 (stereo not given),14%,10%
O=C(Nc1ccc2c(c1)OCCO2)c1cn(-c2ccc(F)cc2)nn1,31%,6%
N#CCCCN1CCN(C(=O)c2cc3ccccc3[nH]2)CC1,34%[activator],-11%
Cc1cccc(OCCCC(=O)Nc2ccc3c(C)cc(=O)oc3c2)c1,-2%,-5%
Cc1ccc(NC(=O)C(NS(=O)(=O)c2ccc3c(c2)CCC(=O)N3)c2ccccc2)cc1C (stereo not given),91%[activator],-6%
CCC(C)NC(=O)c1ccc2c(c1)N=C(C)c1cc(C)ccc1S2 (stereo not given),97%[activator],61%[activator]
Cc1c(C(=O)N(C)c2ccccc2)sc2nc3n(c(=O)c12)CCCCC3,1%,-12%
Cc1nn(-c2nc3c(c(=O)n(Cc4c(F)cccc4Cl)c(=O)n3C)n2C)c(C)c1C,3%,-1%
CCOc1ccccc1-c1nnc(SCc2ccc(Cl)cc2)o1,-1%,10%
COc1cccc(NC(=O)CSc2nc(C)c(Cc3ccccc3)c(=O)[nH]2)c1,-5%,-6%
Fc1ccc(CSc2ccc3ccccc3n2)cc1,0%,-1%
CC(C)CNC(=O)CN1CCN(C(=O)Cc2c[nH]c3ccccc23)CC1,-7%,-6%
Cc1ccccc1CN1c2ccccc2-c2nc(SCC(=O)NCCc3ccccc3)ncc2S1(=O)=O,-1%,-15%
COc1cccc2cc(C(=O)NCCc3c[nH]c4ccccc34)c(=O)oc12,172%[activator],-9%
CCCNC(=O)COC(=O)/C=C/c1cccc2cccnc12,55%[activator],27%
O=C(CCc1ccsc1)N1CCSCC1,15%,20%
O=S(=O)(c1cccc(Cl)c1)c1nnn2c1nc(NC1CCCCCC1)c1sccc12,-9%,-2%
CSCCCNC(=S)NNC(N)=O,-2%,8%
Cc1cc(OCC(=O)Nc2ccc(C(=O)OC3CCCCC3)cc2)cc(C)c1Cl,-7%,-11%
CC(Oc1cccc2ccccc12)C(=O)NC1(C#N)CCCCC1 (stereo not given),-7%,8%
Cc1cc(NC(=O)C2CCN(S(=O)(=O)c3c(C)noc3C)CC2)ccc1Br,-16%,-8%
C=CCNC(=S)Nc1ccc(F)cc1Cl,0%,14%
CC1(C)CC(NC(=O)CCc2ncc(-c3ccccc3F)o2)CC(C)(C)N1,-5%,-13%
O=C(c1cn(CCOc2ccccc2Cl)c2ccccc12)C(F)(F)F,12%,10%
CCOC(=O)c1cccc(NC(=O)C(C)n2c(C)c3cnn(-c4ccccc4)c(=O)c3c2C)c1 (stereo not given),19%,-9%
O=C(CN1C(=O)c2ccccc2S1(=O)=O)c1ccc(F)c(F)c1,?,-12%
COc1cc2c(=O)c(C(=O)c3ccc(C)c(C)c3)cn(Cc3ccccc3)c2cc1OC,31%[activator],17%
C[C@H](NC(CCc1ccccc1)C(=O)O)C(=O)N1CCC[C@H]1C(=O)O (stereo not given in full),-8%[11.5 µM],-4%
CCCCCCCc1ccc(-c2ccc(OC(F)F)cc2)nc1,0%,-6%
CCOC(=O)C1=C(CN(CCOC)Cc2cccs2)NC(=O)NC1c1ccc(Cl)cc1 (stereo not given),-16%,26%
CCc1cccc(C)c1Nc1c(-c2ccc(N(C)C)cc2)nc2ncccn12,0%,-14%
CCOC(=O)C(C(=O)OCC)C(NC(=O)OC)C(Cl)(Cl)Cl (stereo not given),-9%,-8%
Cc1c(C)n(CCCN2CCOCC2)c2ncn3nc(-c4ccccn4)nc3c12,16%,-2%
CC(C)(C)c1ccc(/C=C2\Oc3cc(OS(C)(=O)=O)ccc3C2=O)cc1,?,?
Cc1n[nH]c(C)c1S(=O)(=O)N1CCCC(C(=O)Nc2ccc(Br)cc2)C1 (stereo not given),-39%,-15%
O=C(NCC(c1ccc2c(c1)OCO2)N1CCN(c2ccccc2F)CC1)c1ccccc1F (stereo not given),23%,26%
CC(C)c1ccc(NC(=O)C2CCN(C(=O)c3ccc(F)cc3)CC2)cc1,-19%,?
CCOC(=O)C1=C(N)Oc2cc(O)ccc2C1c1ccc(C)cc1 (stereo not given),22%,5%
O=C(O)CNS(=O)(=O)c1cccc(Br)c1,6%,-6%
Cc1cccc(Nc2nc(C)c(C(=O)N(C)C)s2)c1,213%[activator],12%
COCCNC(=O)C(=O)N1CCN(c2nc(-c3ccccc3)c3c(c2C#N)CCCC3)CC1,-5%,20%
CNC(=O)C1CCC(Cn2c(=O)c3sccc3n(CC(=O)Nc3cccc(OC)c3)c2=O)CC1 (stereo not given),9%,4%
CCCCN(C(=O)COc1ccc2ccc(=O)oc2c1)C1CC(C)(C)NC(C)(C)C1,10%,-1%
CCC(CC)C(=O)NC1CC(=O)N(c2ccc3c(c2)OCCO3)C1 (stereo not given),-18%,-11%
O=C(CSc1nc(-c2ccccc2)nc2cc(=O)[nH]n12)Nc1cccc(C(F)(F)F)c1,-3%,-19%
COc1ccc(S(=O)(=O)c2cc3ccccc3oc2=O)cc1,-1%,-1%
Cc1ccc(-c2nn(C)c(=O)c3ccccc23)cc1CNC(=O)c1ccccc1,-18%,8%
CCc1ccc(C(=O)c2cn(CC(=O)Nc3ccc4c(c3)OCO4)c3ccc(Cl)cc3c2=O)cc1,-19%,-9%
CCCOc1ccccc1C1C2=C(CC(C)(C)CC2=O)Nc2ccccc2N1C(C)=O (stereo not given),-10%,3%
O=C(Cc1c[nH]c2ccccc12)NCCOc1ccc(Cl)cc1,-13%,-16%
CC1=C(C(=O)Nc2ccccc2C)C(c2ccco2)n2ncnc2N1 (stereo not given),-3%,-5%
CC(C)(C)c1ccc(/C=C/C(=O)NCCC2=CCCCC2)cc1,18%,6%

# These rows are one share of the data, so the mix of outcomes need not match the whole.
